HTT prom inh: HTT promoter inhibition; HEK293 HTT promoter firefly luciferase reporter (activity 0% = vehicle and -100% = no light), 24 h; Potency, µM (top dose mostly 57.5 µM), for the others: at the top dose activity change, negative = inhibition, hits mostly inhibitors; hit rate 0.93% among 48,000; active means well fitted inhibition curve with a large enough effect; inconclusive means small, poorly fitted or top-dose-only effect; inactive means no such curve, though single readings can be large or run the other way; further: nearly all actives have a fitted effect of over 50% in size
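Luminescence was read after Dual-Glo reagent and a 10 min room-temperature incubation. Values were normalized to vehicle (0% activity) and zero RLU (-100% activity). Reporter HEK293 cells had been exposed to compounds (up to 57.5 uM final) for 24 h.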
PMP22 txn: modulates PMP22 transcription in S16 Schwann cells; S16 Pmp22-F2sN Schwann cells (luciferase reporters placed in the Pmp22 gene), FLuc/NLuc coincidence luminescence, 24 h; Potency, µM (top dose mostly 57.5 µM), for the others: top-dose activity change, negative = inhibition, actives largely listed as inhibitors; hit rate 2% among 43,000; AID 1508649; active = clear falling dose curves in both reporters; inconclusive = both reporters move, but less clearly or upward; inactive = either reporter flat; the % is the NLuc reporter signal; further: on the % scale 0 is the no-effect control and ±100 the full control effect; some results filed as inactive show a strong effect at the top dose
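qHTS, 1536-well. Cells seeded, compounds added by pin tool, 24 h 37C. Nano-Glo reagent 1 (lysis/FLuc), 10 min RT, read; Stop&Glo, 10 min RT, read NLuc.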
* = called active by the depositor; u = inconclusive; x = no result given; [ ] = another dose, or the depositor's remark. Potency means the concentration at half of the fitted maximal effect.

SMILES | HTT prom inh | PMP22 txn
Cc1cc(C)cc(N2C(=O)CCSC23C(=O)N(Cc2ccccc2)c2ccccc23)c1 (stereo not given) | -6.8% | -43.1%
O=C(NCc1ccccc1)c1cc2ccccc2o1 | 16.9% | -17.5%
COc1ccc(-c2c3c(=O)n(C)c(=O)n(C)c3c3c(C)nc4ccccc4n23)cc1 | -13.8% | u
O=C(NCc1ccccc1F)c1ccc(CN2CC(=O)N3CCCCC3C2=O)cc1 (stereo not given) | -19.3% | -7.0%
COc1ccc(CN2C(=O)c3oc4ccccc4c(=O)c3C2c2ccc(O)c(OC)c2)cc1 (stereo not given) | 2.7% | -10.0%
COc1ccccc1OCCn1c(NC(=O)c2ccc(Cl)cc2)nc2ccccc21 | -10.6% | -11.9%
COc1cc2c(c(OC)c1)C(c1cc(OC)c(OC)c(OC)c1)CC(=O)N2 (stereo not given) | -3.3% | 0.2%
Cc1cc(C)c(NC(=O)Cn2c(=O)n(CCC(=O)NCc3ccccc3Cl)c(=O)c3sccc32)c(C)c1 | -11.0% | u
Cc1cccc(-n2ncc3c(NCCOCCO)ncnc32)c1 | 38.6%[activator] | -11.4%
CCOC(=O)c1ccc(Nc2c(-c3ccc(N(C)C)cc3)nc3nc[nH]n23)cc1 | -3.3% | 3.1%
Cc1nnc(NCc2ccccc2)c2c1nnn2Cc1ccccc1Cl | -7.9% | -66.8%
Cc1cccc(OCC(=O)Nc2ccccc2C(=O)OCc2cc(=O)n3ccsc3n2)c1 | -5.7% | -13.4%
CCN(CC)C(=O)CSc1nc2ccccc2c(=O)n1Cc1ccco1 | 0.0% | -2.9%
COc1ccccc1NC(=O)c1c(NCc2ccc(C)o2)sc2c1CCCCC2 | 7.9% | 14.1µM*
COc1ccc(-c2oc3ncn4nc(-c5ccccc5Br)nc4c3c2-c2ccc(OC)cc2)cc1 | -14.6%[11.5 µM] | -2.5%
CC(C)c1noc(N2CCC(COc3ccc(-c4ccc(S(C)(=O)=O)cc4)nc3)CC2)n1 | -16.0% | x
O=C(NCc1cccc(Cl)c1)c1oc(=O)c2ccccc2c1-c1ccccc1 | -11.1% | 2.6%
Cc1cc(CC(=O)O)n(C)c1C(=O)c1ccc(Cl)cc1 | 5.4% | x
COc1cccc(C(=O)Nc2nc(-c3nnn(-c4ccccc4C(F)(F)F)c3C)ns2)c1 | u | -13.0%
Cc1cccn2c(=O)c3cc(C(=O)NCc4cccnc4)c(=N)n(CCCO)c3nc12 | -12.7% | -6.0%
COc1ccc(Cn2ccc3nc(C)c(C(=O)N4CCN(c5cccc(OC)c5)CC4)cc3c2=O)cc1 | u | -24.7%
COc1ccc(OC)c(NC(=O)c2cc3cccc(OC)c3oc2=O)c1 | -1.1% | 1.4%
CCOc1ccc(NC(=O)CC2C(=O)N(c3ccc(C)cc3)C(=O)N2C2CCCCC2)cc1 (stereo not given) | 12.7% | u
C=C1C(=CC=C2CCC[C@]3(C)[C@@H]([C@H](C)C=C[C@H](C)C(C)C)CC[C@@H]23)C[C@@H](O)C[C@@H]1O | 19.7% | x
COc1ccc2c(c1)c1c3n2CCN(C)C3=NCC1 | -4.0% | x

Record cards, from the list above. Order of screens: HTT prom inh, PMP22 txn
`Cc1cccc(OCC(=O)Nc2ccccc2C(=O)OCc2cc(=O)n3ccsc3n2)c1` is entered as -5.7%, -13.4%
`COc1ccccc1NC(=O)c1c(NCc2ccc(C)o2)sc2c1CCCCC2` is entered as 7.9%, 14.1µM*

Other results follow.
SMILES | HTT prom inh | PMP22 txn
COc1ccc(N2CCN(C(=O)c3c(C)oc4ncnc(N5CCCCC5)c34)CC2)cc1 | -23.4% | -0.1%
COc1cccc(N2CC(NC(=O)COc3ccc4ccccc4c3)CC2=O)c1 (stereo not given) | -12.1% | u
CCN1CCN(CCCNC(=O)CS(=O)(=O)Cc2nc(-c3ccccc3C)oc2C)CC1 | -16.7% | 9.0%
COc1ccc(OC)c(NC(=O)c2c(NCc3ccc(C)o3)sc3c2CCC(C)C3)c1 (stereo not given) | u | u
COc1ccc(NC(=O)Cn2cnc3c(nc4n3CCCCC4)c2=O)c(OC)c1 | -15.2%[11.5 µM] | 4.8%
CCOC(=O)c1c(NC(=O)c2cc3nc(-c4ccc(OC)cc4)cc(C(F)(F)F)n3n2)sc(C)c1C | -0.4% | 0.9%
COc1ccc(NC(=O)c2nc3nc(C)cc(C(F)F)n3n2)c(C)c1 | 12.3% | -2.8%
CCCn1c2ccccc2c2cnn(CC(=O)N(C)c3ccccc3CC)c(=O)c21 | u | u
CCOc1ccccc1NC(=O)CCNS(=O)(=O)c1ccc2c(c1)CCN2C(=O)C1CC1 | -8.3% | -11.4%
COC(=O)c1c(-c2ccc(Cl)cc2)noc1N1CCN(c2ccc(F)cc2)CC1 | 5.6% | 3.77µM*
CCOC(=O)c1[nH]c(C)c(CCC(=O)Nc2ccc(C)cc2Cl)c1C | -8.3% | -16.6%
Cc1cc(C(=O)N2CCN(c3cccc(Cl)c3)CC2)n(-c2ccccc2)n1 | -17.4% | x
Cc1ccc(-n2nnnc2CNC(=O)C(C)C)cc1C | 1.7% | 10.8%
COc1ccc(-c2nnn3c2nc(NCCc2ccc(OC)c(OC)c2)c2ccccc23)cc1 | -10.3% | -40.3%
COc1ccc(C(=O)c2cn(Cc3ccccc3OC)c3cc4c(cc3c2=O)OCO4)cc1 | -0.9% | 2.4%
COc1ccc(OC)c(NS(=O)(=O)c2cc3c(cc2Cl)N(C(C)=O)CCO3)c1 | -16.8% | -22.9%
COc1ccc(-c2nc3c(c(SCC(=O)Nc4ccccc4F)n2)Cc2cc(C)ccc2O3)cc1 | -2.6% | -6.9%
CNS(=O)(=O)c1cn(CC(=O)Nc2cccc(OC)c2)cc1S(=O)(=O)NC | -12.4% | 12.6%
CCC(C)NC(=O)CCC(=O)NNc1nc2ccccc2c2nc(C)nn12 (stereo not given) | -1.6% | -27.1%
CC1CCN(S(=O)(=O)c2ccc3c(ccc(=O)n3CC(=O)NCc3ccccc3)c2)CC1 | -21.3% | 3.6%
Cc1ccccc1Cn1c(=O)n(CCc2ccccc2)c(=O)c2c(C)c(C)sc21 | 4.7% | u
O=C(CCCn1c(=O)[nH]c2ccccc2c1=O)NCc1ccccc1Cl | 4.4% | 6.7%
CC(C)OCCCNC(=O)Cn1ccc2cc(S(=O)(=O)N3CCCCCC3)ccc21 | u | -22.1%
O=C(NCc1cccc(F)c1)C1=Cc2cc(Br)ccc2OC1 | -16.1% | -2.7%
Cc1cc(C)cc(NC(=O)CSCc2cc(=O)c3ccc(C)c(C)c3[nH]2)c1 | -1.5% | -3.1%

Further results.
SMILES | HTT prom inh | PMP22 txn
CN1C(C(=O)Nc2ccc(OC(F)(F)F)cc2)=CC(c2ccc3c(c2)OCO3)=NS1(=O)=O | u | -3.5%
Cc1ccc(NC(=O)CCn2cccn2)cc1Cl | 18.0% | 10.5%
Cc1cc(Cl)ccc1NS(=O)(=O)c1c(C(=O)N2CCCCCC2)c(C)n(C)c1C | -10.4% | 14.9%
COC(=O)c1ccc(NC(=O)c2nc(-c3ccc(Cl)cc3)n3c2CCCCC3)cc1 | u | u
O=C(Nc1ccc(Br)cc1)C(Cc1ccccc1)NS(=O)(=O)c1cccc2nsnc12 (stereo not given) | -17.4% | -52.3%
CCC1CCCCN1CCCNC(=O)c1ccc2c(c1)sc1nc(-c3ccc(F)cc3)cn12 (stereo not given) | 2.5% | u
COc1cc(OC)cc(C(=O)Nc2cccc(-c3cn4ccsc4n3)c2)c1 | 17.3% | -39.7%
Cc1ccc(C)c(CN2C(=O)c3ccccc3S(=O)(=O)c3ccc(C(=O)N4CCCC4)cc32)c1 | -27.8% | u
O=C(NCc1ccccc1Cl)c1ccc2c(c1)N(Cc1ccccc1)CCS2 | u | 6.4%
COc1ccccc1Nc1nn2c(=O)c3ccc(C(=O)NCCCOC(C)C)cc3nc2s1 | -14.8% | u
COc1ccc(OC)c(NC(=O)CN(c2ccccc2OC)S(=O)(=O)c2ccc(C)cc2)c1 | u | u
COc1ccc(NC(=O)CSC2=Nc3ccccc3C3=NC(CCC(=O)NCCc4ccccc4)C(=O)N23)cc1 (stereo not given) | -17.9% | 2.8%
CCOc1ccc(NC(=O)Cc2csc(COc3cccc(C)c3)n2)cc1 | -5.9% | -10.0%
Cc1ccc(S(=O)(=O)c2nc(-c3cccs3)oc2SC(C)C)cc1 | -24.6% | -19.9%
O=P(O)(O)C(O)(Cn1ccnc1)P(=O)(O)O | -1.3%[25.2 µM] | x
CCCCCOc1ccc(Cn2c(=O)oc3ccccc32)cc1 | 6.0% | -23.5%
CN1C(=O)Cc2cc(S(=O)(=O)CCC(=O)N3CCN(c4ccccc4F)CC3)ccc21 | -17.4% | -3.4%
CCc1ccc(S(=O)(=O)c2cn(C)c3cc(N4CCOCC4)c(F)cc3c2=O)cc1 | -18.6% | -10.2%
COCCCNC(=O)c1ccc2c(c1)N=C(C)c1c(C)ccc(C)c1S2 | -46.2% | 0.089µM*
CN(Cc1ccccc1)C(=O)CSc1nnc(-c2cccc(Cl)c2)o1 | 1.2% | -12.9%
O=S(=O)(NCC(c1ccco1)S(=O)(=O)c1cccs1)c1ccc(Cl)cc1 (stereo not given) | u | 15µM*
COc1cccc(NC(=O)CSC2=Nc3ccccc3N=C(c3ccc(F)cc3)C2)c1 | -18.5% | u
COCCCNc1ncnc2c1nnn2C | 9.6% | -30.6%
C[C@]12C[C@H](O)[C@H]3[C@@H](CCC4=CC(=O)CC[C@@]43C)[C@@H]1CC[C@@H]2C(=O)CO | 0.3% | x
O=C(NCc1ccccc1Cl)c1ccc(Cn2c(=O)c3cccn3c3cccnc32)cc1 | -11.6% | 2.0%

Reprinted at random: four records from the list
SMILES | HTT prom inh | PMP22 txn
Cc1ccccc1Cn1c(=O)n(CCc2ccccc2)c(=O)c2c(C)c(C)sc21 | 4.7% | u
CCCCCOc1ccc(Cn2c(=O)oc3ccccc32)cc1 | 6.0% | -23.5%
CCOC(=O)c1[nH]c(C)c(CCC(=O)Nc2ccc(C)cc2Cl)c1C | -8.3% | -16.6%
CCN(CC)C(=O)CSc1nc2ccccc2c(=O)n1Cc1ccco1 | 0.0% | -2.9%

Next part:
SMILES | HTT prom inh | PMP22 txn
COc1cccc(COC(=O)c2ccc(-c3nnn(Cc4cccc(OC)c4)n3)cc2)c1 | 1.4% | -21.2%
COc1ccccc1OCCn1cc(C(=O)c2cccs2)c2ccccc21 | u | u
COc1ccc(C(=O)NCCn2cc(SC(C)c3ccccc3)c3ccccc32)cc1OC (stereo not given) | u | u
COc1ccc(-c2cc(=O)c3c(O)cc(O)cc3o2)cc1O | 1.8% | x
COc1ccc(NC(=O)CN2C(=O)C(c3ccc(C(C)(C)C)cc3)=NC2(C)C)cc1Cl | 4.9% | -21.3%
COc1ccc(-n2cc(C(=O)Nc3cc(F)ccc3F)c3ccccc3c2=O)cc1 | -9.3% | -7.5%
CCOC(=O)c1c(C)n(S(=O)(=O)c2ccc(C)cc2C)c2ccc(NS(=O)(=O)c3ccc(C)cc3C)cc12 | -32.0% | -2.8%
COc1ccc(CN2CCN(c3ncnc4sc5c(c34)CC(C)CC5)CC2)cc1F (stereo not given) | -6.8% | u
CCCCOC(=O)c1ccc(NC(=O)Cc2coc3ccc(C(C)C)cc23)cc1 | u | -34.2%
CCOC(=O)c1ccc(NC(=O)Nc2cc3c(cc2N2CCCCC2)n(CC)c(=O)n3CC)cc1 | u | u
Cc1nc(-n2nc(C)c(Cc3ccccc3Cl)c2C)sc1C(=O)Nc1ccccc1F | -6.9% | -19.1%
Nc1cccc2c1C(=O)N(C1CCC(=O)NC1=O)C2=O (stereo not given) | 3.0% | x
CCOc1ccccc1NC(=O)Cn1c(=O)n(CCCC(=O)NCCc2ccc(C)cc2)c(=O)c2ccccc21 | -5.5% | -13.7%
O=C(NCc1ccc(F)cc1)C(=O)NCC(c1ccc2c(c1)OCO2)N1CCOCC1 (stereo not given) | -2.5% | -22.1%
CCOC(=O)c1cc(-c2ccc(OC)cc2)n(CCC(=O)NCCc2ccccc2)c1C | 2.9% | -41.6%
CCOC(=O)c1ccc(NC(=O)C2CCN(S(=O)(=O)c3ccc(C)cc3)CC2)cc1 | -22.9% | 2.9%
CCOc1cccc2sc(NC(=O)c3ccc(S(=O)(=O)N4CCc5ccccc54)cc3)nc12 | -21.9% | -1.5%
COc1cc(OC)c(NC(=O)Cn2c(SCc3ccccc3F)nc3cccnc32)cc1Cl | -2.4% | -7.6%
O=C(CCc1ccccc1)NC1CC(=O)N(c2cccc(F)c2)C1 (stereo not given) | 4.6% | 5.4%
Cc1ccc2nc(NC(=O)c3nc(SCc4ccccc4F)ncc3Cl)sc2c1 | -12.5% | -0.5%
CN(C)CCNC(=O)c1ccc2c(c1)N(Cc1ccccc1)C(=O)c1ccccc1S2(=O)=O | -15.3% | u
CCN1C(C(=O)c2ccccc2)=C(OC(=O)C(C)C)c2ccccc2S1(=O)=O | u | u
CC(C)CCOC(=O)c1ccc(N(C)C)cc1 | 38.5%[activator] | x
COc1ccc(C2CC(=O)Nc3c2c(C)nn3-c2nncc(-c3ccccc3)n2)c(OC)c1OC (stereo not given) | -24.3% | u
CC(C)c1ccc(OCC(=O)NC(Cc2c[nH]c3ccccc23)C(=O)O)cc1 (stereo not given) | -6.4% | -2.0%
O=C(NCc1ccc2c(c1)CCN2C(=O)c1ccc(Cl)cc1)c1ccco1 | -11.5% | -9.4%

High-throughput results as filed in PubChem.
